# From PubChem
# HCMV NEC inh – inhibitors of HCMV UL50-UL53 nuclear egress complex interaction; HTRF UL50-UL53 interaction, normalized percent inhibition; inhibition, % (test concentration not listed); 190,000 compounds, 0.15% hits;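 active = both replicates at 50% or more, plus weaker picks with an unusually low signal ratio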;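 also: stock transfer was 100 nL into about 20 µL; 0% = negative control wells and 100% = wells with untagged competitor protein; inactives centre near -12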
# Sa growth inh – blocks Staphylococcus aureus growth. S. aureus RN4220 growth, OD600, 20 h, 42 °C; hits give low values. relative growth, % (no concentration beside the values). 170,000 compounds, 0.53% hits. AID 720641;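 active = growth at 42 °C up to 50% and 20 or more points under that at 30 °C, or under 10% at both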;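 also: 300 nL library stock went into each well; scaled to the means of positive and negative controls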
# GIV-Gai inh – GIV-Galpha-i interaction inhibition | P08753 | Galpha-i3/FITC-GIV peptide fluorescence polarization, 90 min; hits give low values; scaled: aluminum fluoride 0%, vehicle 100% | percent of control (FP), % (no concentration beside the values) | 210,000 compounds, 0.42% hits | AID 1224905;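 active = replicate mean at 85% of control or lower, very high polarization wells dropped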;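 also: wells of about 15 µL received 100 nL stock; the first replicate is given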
# Target sequence (P08753 whole entry, looked up): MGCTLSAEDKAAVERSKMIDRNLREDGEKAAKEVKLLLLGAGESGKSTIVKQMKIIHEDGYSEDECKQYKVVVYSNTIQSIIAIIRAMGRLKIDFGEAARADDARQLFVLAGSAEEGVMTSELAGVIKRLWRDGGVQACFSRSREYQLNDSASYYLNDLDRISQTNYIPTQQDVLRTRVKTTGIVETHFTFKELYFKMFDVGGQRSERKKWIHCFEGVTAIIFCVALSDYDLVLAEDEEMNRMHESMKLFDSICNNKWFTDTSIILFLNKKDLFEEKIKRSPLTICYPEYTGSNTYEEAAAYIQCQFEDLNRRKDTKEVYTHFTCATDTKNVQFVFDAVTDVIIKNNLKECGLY
# Sa growth inh second temp – further read-out of Sa growth inh, marked with its call; relative growth, %; measured here: growth at 30 °C;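 optical density after 20 h as mean of two plates; 100% = untreated growth and lower means inhibition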
# The depositor's hits bear a star; x = not tested or not shown; & = joins results of further samples.
SMILES,HCMV NEC inh,Sa growth inh,Sa growth inh second temp,GIV-Gai inh
Cc1ccc(C)c(S(=O)(=O)NCCCn2c(C(F)(F)F)nc3cccnc32)c1,-2,x,x,116
O=C(CN1CCCN(S(=O)(=O)c2ccc(Br)cc2)CC1)Nc1cccc(C(F)(F)F)c1,2,81,83,99
O=c1c2c3c(sc2ncn1Cc1ccccc1)CCCC3,-17,103,82,x
O=C1CNC(=S)N1Cc1cccs1,-33,85,81,105
COc1ccc(NC(=O)Nc2nnc(N3CCCCCC3)s2)c(OC)c1,-6,128,88,103
CNc1cc(=O)n(C)c(=O)n1C,-14,91,86,106
Cc1cccc(NC(=O)CSCc2cc(=O)n3ccccc3n2)c1,-40,x,x,103
CCc1ccccc1NC(=O)CCNS(=O)(=O)c1ccc2c(c1)CCN2C(=O)C1CC1,x,113,82,107
O=C1CN(C(=O)c2cccc(Cl)c2)C(c2ccccc2)c2cc(Cl)ccc2N1 (stereo not given),-11,x,x,104
O=C1c2cccc3cccc(c23)C(=O)N1c1ccccc1O,-75,107,88,99
Cc1cc(-c2cc(S(=O)(=O)N3CCN(C)CC3)c(C)s2)on1,-29,x,x,101
O=C1c2ccccc2C(=O)N1CSc1n[nH]c(-c2ccccc2Br)n1,-34,79,92,x
O=C(Cc1cc2ccccc2o1)NCc1ccc(F)cc1,-10,106,74,102
Cc1ccc(-c2ccc(N3CCCC(C(=O)NCc4ccc(Br)cc4)C3)nn2)cc1 (stereo not given),-10,x,x,101
COc1ccc(OC)c(CNC(=O)C2CCN(c3ncnc4c3nc3n4CCCCC3)CC2)c1,x,101,106,107
CCn1c(SC(C)C(=O)Nc2ccnn2C(C)C)nc2sc(C)c(C)c2c1=O (stereo not given),-4,88,87,x
COc1ccc(NC(=O)C2CCCN(S(=O)(=O)c3cc4c(cc3C)NC(=O)CO4)C2)cc1OC (stereo not given),-27,x,x,98
CN(Cc1ccccc1)C(=O)Cn1ncc2c3ccccc3n(Cc3cccc(Cl)c3)c2c1=O,-27,102,81,143
COc1ccc([C@H]2NC(=O)C(=C=[N-])C(=O)[C@@H]2[n+]2ccccc2)cc1,58,116,76,x
CCc1cc2c(=O)n(-c3ccccc3)c(SCC(=O)c3cccs3)nc2s1,4,70,69,106

# Part of the list above in order of SMILES length, smallest number first.
SMILES,HCMV NEC inh,Sa growth inh,Sa growth inh second temp,GIV-Gai inh
O=C(Cc1cc2ccccc2o1)NCc1ccc(F)cc1,-10,106,74,102
Cc1cc(-c2cc(S(=O)(=O)N3CCN(C)CC3)c(C)s2)on1,-29,x,x,101
O=C1c2ccccc2C(=O)N1CSc1n[nH]c(-c2ccccc2Br)n1,-34,79,92,x
CCc1cc2c(=O)n(-c3ccccc3)c(SCC(=O)c3cccs3)nc2s1,4,70,69,106
COc1ccc(OC)c(CNC(=O)C2CCN(c3ncnc4c3nc3n4CCCCC3)CC2)c1,x,101,106,107
COc1ccc([C@H]2NC(=O)C(=C=[N-])C(=O)[C@@H]2[n+]2ccccc2)cc1,58,116,76,x

# Single records (already shown). Order of screens: HCMV NEC inh | Sa growth inh | Sa growth inh second temp | GIV-Gai inh
# COc1ccc(NC(=O)C2CCCN(S(=O)(=O)c3cc4c(cc3C)NC(=O)CO4)C2)cc1OC (stereo not given) in the list: -27 | x | x | 98
# Cc1ccc(-c2ccc(N3CCCC(C(=O)NCc4ccc(Br)cc4)C3)nn2)cc1 (stereo not given) in the list: -10 | x | x | 101
# CN(Cc1ccccc1)C(=O)Cn1ncc2c3ccccc3n(Cc3cccc(Cl)c3)c2c1=O in the list: -27 | 102 | 81 | 143
# COc1ccc([C@H]2NC(=O)C(=C=[N-])C(=O)[C@@H]2[n+]2ccccc2)cc1 in the list: 58 | 116 | 76 | x
# CCn1c(SC(C)C(=O)Nc2ccnn2C(C)C)nc2sc(C)c(C)c2c1=O (stereo not given) in the list: -4 | 88 | 87 | x

# New compounds follow.
SMILES,HCMV NEC inh,Sa growth inh,Sa growth inh second temp,GIV-Gai inh
CC1=C(C(=O)OC2CCCC2)C(c2c(Cl)cccc2Cl)CC(=O)N1 (stereo not given),-1,122,94,105
Cc1cc(=O)[nH]c(NC(N)=NCc2ccccc2)n1,-21,94,86,104
COc1ccc(-c2oc3ncn(CCCn4ccnc4)c(=N)c3c2-c2ccc(OC)cc2)cc1,-23,68,18,x
C=CCN1C(=O)C(O)(CC(=O)c2ccccc2)c2ccccc21 (stereo not given),x,99,109,99
COc1ccc2c(c1)c(C(=O)O)c(C)n2CCc1ccc(OC)c(OC)c1,x,120,77,101
O=C(NC1=NCCS1)C1CCN(S(=O)(=O)c2ccc(Cl)cc2)CC1,3,83,97,x
COc1ccccc1CNC(=O)C1=C(c2ccccc2)c2cc(Cl)ccc2S(=O)(=O)N1C,-18,x,x,102
Cc1cccc(S(=O)(=O)N/N=c2\sc3ccccc3n2C)c1,-11,71,98,x
Cc1cccc(CN2CC=C(C(=O)Nc3cccc(F)c3)CC2)c1,-35,x,x,103
CCCN(c1ccc(C(C)C)cc1)S(=O)(=O)c1ccc2c(c1)CCN2C(=O)CC,6,100,102,109
CC[N+](C)(CC)Cc1cc2ccccc2c2c1COC2,x,89,95,108
CCN1CCS/C1=C\C=C\C1=[N+](CC)CCS1,x,35,44,126
CCC(=O)N1c2ccccc2NC2=C(C(=O)CC(c3cccc([N+](=O)[O-])c3)C2)C1c1ccc(C)cc1 (stereo not given),-13,x,x,102
Cc1ccc2nc(C)cc(C(=O)O)c2c1,-30,101,81,99
O=C(NCCn1cc(SCc2ccccc2F)c2ccccc21)c1cccs1,1,93,88,106
Nc1c(C(=O)N2CCCCC2)sc2nc(-c3cccs3)cc(C(F)(F)F)c12,-1,83,98,x
O=c1c2c3c(sc2nnn1Cc1ccccc1F)CCCC3,-13,88,84,105
CCN(CC)CCNc1c(N)c(=O)oc2ccccc12,-15,92,79,102
CCCCSc1nnc2c(n1)OC(c1ccc(F)cc1)N(C(C)=O)c1ccccc1-2 (stereo not given),-81,x,x,103
COc1ccc(CC(=O)OCC(=O)N2CCN(S(=O)(=O)c3ccc(C)cc3)CC2)cc1,4,92,101,x
COc1ccc(-c2noc(CC(=O)N(C)CCC#N)n2)cc1,x,100,95,104
Cc1cccc(-n2ccc(=O)c(C(=O)Nc3ccc(S(N)(=O)=O)cc3)n2)c1,-14,x,x,92
CC1=C(c2ccc(C)cc2)S(=O)(=O)NC1=NCCCN1CCN(c2ccccc2F)CC1,-24,120,59,101
c1ccc(Cn2nnnc2CN2CCCC2)cc1,-2,115,90,104
COc1ccc(C2Nc3ccccc3C(=O)N2c2ccc(C)cc2)cc1CN1C(=O)c2ccccc2C1=O (stereo not given),-20,x,x,106
COc1ccc(CC(=O)Nc2ccc(-c3nnc(-c4ccc(C)cc4)o3)cc2)cc1,-10,102,96,107
Cc1cc(C(=O)Nc2cccc(F)c2)c2c(C)nn(-c3cccc(Cl)c3C)c2n1,x,85,88,98
COc1ccc(NC(=O)c2cc3cc(Cl)ccc3[nH]2)cc1NC(=O)c1ccccc1C,-37,x,x,100
COc1ccccc1CCNC(=O)c1ccc2c(c1)c(C)c(C)n2Cc1ccc(Cl)cc1,x,104,93,102
Cc1ccc(CNC(=O)c2c(-c3ccccc3F)noc2C)o1,x,79,89,105
CCCCc1ccc(NC(=O)C2(C)Cc3ccccc3C(=O)O2)cc1 (stereo not given),-14,94,78,103
O=C(c1cccc(C(=O)N2CCN(c3ccccc3)CC2)n1)N1CCN(c2ccccc2)CC1,-2,x,x,103
Cc1cc2n(n1)c1cc(C)nn1c1cc(C)nn21,-5,97,54,108
COCCCn1c(=O)c2sccc2n2c(CCCC(=O)N3CCN(c4ccccn4)CC3)nnc12,-4,x,x,106
COc1ccc(-c2noc(CSCC(=O)Nc3ccc(C(C)C)cc3)n2)cc1OC,x,88,87,102
COCC(C)NS(=O)(=O)c1ccccc1 (stereo not given),-35,90,87,x
Cc1ccc(CNC(=O)COc2ccccc2-c2nnc(-c3ccccc3)o2)cc1,13,x,x,104
Cn1c(C(=O)N2CCc3ccccc32)cc2sccc21,-12,98,85,102
CSc1nc(N)n2nc(-c3cccs3)cc2n1,-21,99,81,101
COc1ccc(-c2cn3c4ccccc4nc3n2CCN2CCN(CCO)CC2)cc1,-5,96,89,103
CN1C(=O)/C(=C\c2ccccc2)Sc2ccc(C(=O)NCCc3ccccc3)cc21,x,137,87,100
COc1ccc(NC(C)=O)cc1NC(=O)CN1CCCN(S(=O)(=O)c2ccc(Br)cc2)CC1,-8,97,72,98
NC(=O)Cn1cnc2c(cnn2-c2ccccc2)c1=O,4,97,81,105
CCCCC12CN3CC(C)(CN(C1)C3c1c(C)[nH]c(=O)[nH]c1=O)C2=O (stereo not given),-26&-12,84,87,98&96
O=C(CS(=O)(=O)c1ccccc1)Nc1ccc(S(=O)(=O)N2CCCCC2)cc1,-7,115,92,96
CCO/C=C1/C(=O)N(Cc2ccc(OC)cc2)C(=O)c2ccccc21,57*,94,96,x
CN(C)CCCn1c(=O)c2c(ncn2CC(O)CO)n(C)c1=O (stereo not given),-15,x,x,102
COC(=O)C(C)Oc1ccc2oc(=O)cc(-c3cc4ccccc4o3)c2c1 (stereo not given),-38,103,76,104
Cc1ccc(Cl)cc1NC(=O)NCc1cccn1Cc1ccc(F)cc1,-4,99,93,108
CC(C)(C)c1ccc(C(=O)N(Cc2ccc(F)cc2)Cc2ccco2)cc1,-7,83,63,104

# Limited to Sa growth inh second temp and GIV-Gai inh, for two of the compounds above:
Molecule | Sa growth inh second temp | GIV-Gai inh
COc1ccc(NC(C)=O)cc1NC(=O)CN1CCCN(S(=O)(=O)c2ccc(Br)cc2)CC1 | 72 | 98
Cc1ccc(Cl)cc1NC(=O)NCc1cccn1Cc1ccc(F)cc1 | 93 | 108

# Continued:
SMILES,HCMV NEC inh,Sa growth inh,Sa growth inh second temp,GIV-Gai inh
CCc1sc(C(=O)Nc2nc(-c3ccccn3)cs2)cc1C,3,165,83,x
Cc1ccc(S(=O)(=O)n2cc(/C=c3\sc4nc5ccccc5n4c3=O)c3ccccc32)cc1,-11,x,x,103
O=C(O)c1ccc(NNC(=S)NC2CC2)cc1,-9,105,98,x
Clc1ccc2oc(-c3ccccc3)cc(=NCCCN3CCOCC3)c2c1,x,11,5,99
Cc1c(CNCCC2=CCCCC2)c(C(=O)O)c(C)n1Cc1cccc(Cl)c1,x,116,95,106
COc1ccc(N2CCN(S(=O)(=O)c3c(C)[nH]c(=O)[nH]c3=O)CC2)cc1,x,104,88,100
COc1ccccc1C1(C#N)C(=O)Nc2ccccc21 (stereo not given),8,115,103,x
Cc1ccn2c(=O)c(NC(=O)c3cccc([N+](=O)[O-])c3C)c(C)nc2c1,x,98,89,97
O=C(/C=C/c1ccco1)Nc1ccc(-c2cc3ccccc3oc2=O)cc1,-8,106,79,107
